YopH PTP inh – blocks Yersinia enterocolitica YopH tyrosine phosphatase | fluorescence Ex485/Em525 | inhibition, %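 (about 10 µM by stock and volumes)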 | 0.16% of 140,000 active | AID 898;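 active = inhibition of 50% or more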;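 note: controls were vehicle for no effect and minimum signal wells for full effect; inactives centre near -20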
Mtb bLac sens – beta-lactam sensitization of Mtb H37Rv | M. tuberculosis H37Rv growth with meropenem, percent inhibition; hits of this screen are not shown here | inhibition, % at 25 µM | AID 434955 | 0.27% of 330,000 active;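 active = about 74% or more and at least 40 points above the plate without the antibiotic, then above 30% in a dose series; inconclusive = first-round hits that could not be retested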;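 note: growth measured after seven days incubation then overnight dye step; 0% = bacteria only wells and 100% = bacteria with antibiotic; twin plates without the antibiotic show which effects depend on it; some results filed as inactive read as strong as hits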
RecA splice inh – inhibitors of M. tuberculosis RecA intein splicing | cell-free RecA intein splicing, fluorescence | inhibition, %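 (about 9 µM by stock and volumes)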 | 0.75% of 290,000 active; in the data active = inhibition above about 30%; inconclusive = no clear call, values can overlap the other calls;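 note: 0% = vehicle wells and 100% = reference inhibitor control wells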
Target sequence (P9WHJ3 whole entry, looked up, canonical isoform): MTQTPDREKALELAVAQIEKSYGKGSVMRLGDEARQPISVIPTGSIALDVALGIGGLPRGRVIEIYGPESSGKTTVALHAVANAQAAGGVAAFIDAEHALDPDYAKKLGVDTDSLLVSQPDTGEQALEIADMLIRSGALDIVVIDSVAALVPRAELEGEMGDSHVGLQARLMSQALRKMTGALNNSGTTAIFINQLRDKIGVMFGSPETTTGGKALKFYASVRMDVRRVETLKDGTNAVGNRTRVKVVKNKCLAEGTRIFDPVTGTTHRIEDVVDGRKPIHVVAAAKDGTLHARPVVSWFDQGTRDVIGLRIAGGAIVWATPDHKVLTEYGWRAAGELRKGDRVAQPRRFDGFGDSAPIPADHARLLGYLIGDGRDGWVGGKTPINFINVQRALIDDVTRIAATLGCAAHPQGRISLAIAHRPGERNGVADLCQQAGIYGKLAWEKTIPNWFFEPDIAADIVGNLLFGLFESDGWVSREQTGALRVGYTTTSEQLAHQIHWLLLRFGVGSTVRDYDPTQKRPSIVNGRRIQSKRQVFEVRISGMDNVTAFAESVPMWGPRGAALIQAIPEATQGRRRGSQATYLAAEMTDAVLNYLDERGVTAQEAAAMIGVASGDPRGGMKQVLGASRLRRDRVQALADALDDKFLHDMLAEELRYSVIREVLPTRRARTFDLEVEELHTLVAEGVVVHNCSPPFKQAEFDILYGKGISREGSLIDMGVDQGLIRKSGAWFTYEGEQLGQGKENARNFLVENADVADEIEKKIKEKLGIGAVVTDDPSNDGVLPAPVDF
Mtb H37Rv – M. tuberculosis H37Rv growth inhibitors, H37Rv strain (AID 1626) | M. tuberculosis H37Rv growth inhibition; higher % means a stronger effect | inhibition, % at 10 µM; hits with a dose series show IC50 in µM | 0.95% of 220,000 active;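 active = confirmed in a dose series; inconclusive = inhibition above 80% but not taken into the dose series; inactive = below 80% or under 30% at every dose of the series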;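 note: bacteria incubated seven days before Alamar blue readout; 0% = bacteria only wells and 100% = bacteria with antibiotic wells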
Arbovirus anti – arbovirus infection inhibition; 0.37% of 200,000 active; inhibition, % at 10 µM; arbovirus infection cell-based antiviral screen;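 active = inhibition from about 30%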;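 note: bluetongue infection of BSR cells; cell survival read as ATP light after 72 h; 0% = infected wells without compound and 100% = uninfected wells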
Numbers without * were called inactive. Some of the compounds tested; the hit share may differ from the screen's.

Results for Cc1ccc(NC(=O)N2CCCC2C(=O)Nc2ccc(-n3cnnn3)c(C)c2)cc1 (stereo not drawn) ?
YopH PTP inh: -24; Mtb bLac sens: -1; RecA splice inh: 0.7; Mtb H37Rv: 3%; Arbovirus anti: 4

Results for CCOc1ccccc1CNC(=O)C1CCN(c2nc3ccccc3o2)CC1 ?
YopH PTP inh: -4; Mtb bLac sens: -5; RecA splice inh: -0.2; Arbovirus anti: 7

How did CCOC(=O)CCNC(=O)N1CCCC(C(=O)c2cccc(Cl)c2)C1 (stereo not drawn) do in these assays?
Mtb bLac sens: -10; RecA splice inh: -1.1; Mtb H37Rv: 1%; Arbovirus anti: 4

What do the screens show for `Cc1ccc(S(=O)(=O)NCCSC(C)(C)C)cc1`?
YopH PTP inh: -23; Mtb bLac sens: 2; Mtb H37Rv: -1%; Arbovirus anti: 0

Results for CCO/C=C/C(O)(CNC(=O)COc1ccccc1F)C(F)(F)F (stereo not drawn) ?
YopH PTP inh: -44; Mtb bLac sens: 0; RecA splice inh: 3.8; Mtb H37Rv: 9%; Arbovirus anti: -2

What do the screens show for `CCC(=O)c1ccc(OCC(=O)OCC(=O)NCCCc2ccccc2)cc1`?
Mtb bLac sens: -5; RecA splice inh: 9.0

Results for CN1C(=O)c2ccccc2Sc2ccc(C(=O)O)cc21 ?
Mtb bLac sens: -3; RecA splice inh: 0.9

Results for Cn1c(CCN2CCCC2)nc2cc(NS(=O)(=O)c3ccccc3)ccc21 ?
Mtb bLac sens: -4; RecA splice inh: 0.5

How did Cc1ccc(N(C(=O)C(F)(F)F)C(C(=O)NC2CCCCC2)c2cccs2)cc1 (stereo not drawn) do in these assays?
YopH PTP inh: -51; Mtb bLac sens: -5; RecA splice inh: 0.3; Mtb H37Rv: -2%; Arbovirus anti: -2

Results for O=C(c1n[nH]c(=O)c2ccccc12)N1CCN(c2ccccc2)CC1 ?
YopH PTP inh: -35; Mtb bLac sens: -11; RecA splice inh: -1.6; Mtb H37Rv: -15%; Arbovirus anti: 2

How did CC(C)n1cc(NC(=O)c2cc(-c3ccccc3)on2)cn1 do in these assays?
YopH PTP inh: -2; Mtb bLac sens: -1; RecA splice inh: 3.0; Mtb H37Rv: 12%; Arbovirus anti: -15

Results for O=C(O)/C=C/C(=O)N1CCc2ccccc21 ?
Mtb bLac sens: 1; RecA splice inh: 0.8; Mtb H37Rv: -5%; Arbovirus anti: 5

How did CCCCCN1CC(O)=C(c2ccccc2)C1=N do in these assays?
YopH PTP inh: 2; Mtb bLac sens: 23; RecA splice inh: -1.4; Arbovirus anti: -4

What do the screens show for `O=[N+]([O-])c1ccccc1S(=O)(=O)Nc1nc2ccccc2s1`?
Mtb bLac sens: -11; RecA splice inh: -0.8

What do the screens show for `O=C(O)c1ccc(N/N=C/c2ccc(OC(=O)c3ccccc3Cl)cc2)cc1`?
YopH PTP inh: -11; Mtb bLac sens: 1; RecA splice inh: 3.5; Mtb H37Rv: 4%; Arbovirus anti: -5

How did COCC(C)NC(=O)C1c2ccccc2Oc2ccccc21 (stereo not drawn) do in these assays?
Mtb bLac sens: 0; RecA splice inh: -3.3

How did Cc1nc(NN)c2c3c(sc2n1)COC(C)(C)C3 do in these assays?
Mtb bLac sens: 1; RecA splice inh: -3.6

How did O=C(c1ccc(SCc2cccc(Br)c2)c([N+](=O)[O-])c1)N1CCN(c2ccccn2)CC1 do in these assays?
Mtb bLac sens: -4; RecA splice inh: -0.8; Mtb H37Rv: 4%; Arbovirus anti: 4

Results for COc1ccc(C2/C(=C(/O)c3ccccc3)C(=O)C(=O)N2CCCN2CCOCC2)cc1 (stereo not drawn) ?
Mtb bLac sens: -4; RecA splice inh: 4.3

Results for O=C(Nc1ccc2[nH]ncc2c1)c1cccc(F)c1 ?
Mtb bLac sens: 0; RecA splice inh: 0.2

Results for O=C(CSCc1ccco1)c1cccs1 ?
YopH PTP inh: -24; Mtb bLac sens: -9; RecA splice inh: 0.4; Mtb H37Rv: -2%; Arbovirus anti: 2

What do the screens show for `COc1cccc(Nc2ncc(C(=O)O)c3ccccc23)c1`?
YopH PTP inh: -22; Mtb bLac sens: 4; RecA splice inh: 0.8; Mtb H37Rv: 4%; Arbovirus anti: 3

How did CN1CCN(CCCC(=O)c2ccc(F)cc2)CC1 do in these assays?
YopH PTP inh: 13; Mtb bLac sens: inconclusive; RecA splice inh: 2.5; Mtb H37Rv: -10%; Arbovirus anti: 1

Results for CCOC(=O)C(Cc1ccccc1)NC(C)=O (stereo not drawn) ?
YopH PTP inh: 0; Mtb bLac sens: inconclusive; Mtb H37Rv: 3%; Arbovirus anti: 2

How did CC1([N+](=O)[O-])COC2(OC1)C(=O)Nc1ccccc12 (stereo not drawn) do in these assays?
Mtb bLac sens: 4; RecA splice inh: 1.0

What do the screens show for `Cc1ccnc2nc(C(=O)Nc3nc(-c4ccccn4)cs3)nn12`?
Mtb bLac sens: 6; RecA splice inh: -13; Mtb H37Rv: -2%; Arbovirus anti: -19

How did COC(=O)c1c(-c2c(Cl)cccc2Cl)noc1NC(=O)N(C)C do in these assays?
Mtb bLac sens: -6; RecA splice inh: 13; Mtb H37Rv: -11%

How did Cc1cccc(C)c1OCc1cc(C(=O)N(C)Cc2cc(C3CC3)n[nH]2)no1 do in these assays?
Mtb bLac sens: inconclusive; RecA splice inh: 5.6

What do the screens show for `CCOc1ccccc1NC(=O)C1CCN(c2nc(-c3ccc(OC)cc3)no2)CC1`?
Mtb bLac sens: -3; RecA splice inh: -2.4

What do the screens show for `COc1ccc2[nH]c(=O)c(CN(Cc3ccco3)C(c3nnnn3Cc3ccccc3)C(C)C)cc2c1` (stereo not drawn)?
YopH PTP inh: 1; Mtb bLac sens: 3; RecA splice inh: -0.5; Mtb H37Rv: -2%; Arbovirus anti: 1

Results for CCOc1ccccc1N1CCN(C(=O)c2ccc3[nH]c(C)c(C)c3c2)CC1 ?
Mtb bLac sens: 0; RecA splice inh: 7.6

Results for CN(CC(=O)Nc1ccc(F)cc1)C(=O)COC(=O)CCN1C(=O)C2CC=CCC2C1=O (stereo not drawn) ?
Mtb bLac sens: 0; RecA splice inh: -0.9

Results for COc1ccc(NC(C)=O)cc1S(=O)(=O)N1CCc2ccccc21 ?
Mtb bLac sens: 0; RecA splice inh: -2.9; Mtb H37Rv: -5%; Arbovirus anti: -1

Results for COc1ccc2c(c1)CCc1c(C(=O)Nc3ccc(OC)c(OC)c3)noc1-2 ?
YopH PTP inh: -3; Mtb bLac sens: 9; RecA splice inh: 2.9; Mtb H37Rv: -8%; Arbovirus anti: 5

What do the screens show for `CCCc1nn2c(=O)cc(CSCC(=O)Nc3ccccc3)nc2s1`?
Mtb bLac sens: -2; RecA splice inh: -5.6

Results for CC(C)CCNC(=O)c1cccnc1Sc1ccccc1 ?
YopH PTP inh: -29; Mtb bLac sens: -9; RecA splice inh: 2.0; Mtb H37Rv: 3%; Arbovirus anti: -2

What do the screens show for `CCCn1nnnc1SCC(=O)c1ccc2c(c1)OCCO2`?
YopH PTP inh: -33; Mtb bLac sens: 1; RecA splice inh: -3.2; Mtb H37Rv: 0%; Arbovirus anti: -3

How did Cc1cc(C)c2oc(-c3cccc(N)c3)nc2c1 do in these assays?
Mtb bLac sens: 10; RecA splice inh: 1.1

How did CCOC(=O)C1CCCN(Cc2ccccc2F)C1 (stereo not drawn) do in these assays?
YopH PTP inh: -30; Mtb bLac sens: 2; RecA splice inh: 2.9; Mtb H37Rv: -6%; Arbovirus anti: 7

How did COc1cc(C(=O)OCC(=O)N2CCCC2)cc(OC)c1OC do in these assays?
YopH PTP inh: -46; Mtb bLac sens: -2; RecA splice inh: -0.2; Mtb H37Rv: -8%; Arbovirus anti: 18

How did O=C(CSc1nnc(SCc2ccc(Cl)cc2)s1)N/N=C/c1ccccc1Cl do in these assays?
YopH PTP inh: -26; Mtb bLac sens: 34; RecA splice inh: 4.1; Arbovirus anti: -5

Results for Cc1ccc2cc(CCNC(=O)C3CCCCC3)c(=O)[nH]c2c1C ?
Mtb bLac sens: 3; RecA splice inh: -1.2

How did CCOc1cc(C2C(C(C)=O)=C(O)C(=O)N2CCc2c[nH]c3ccccc23)ccc1O (stereo not drawn) do in these assays?
Mtb bLac sens: -4; RecA splice inh: -1.6; Mtb H37Rv: -4%; Arbovirus anti: 6

Results for CC(C)(C)CC(C)(C)N=C1NS(=O)(=O)c2cc([N+](=O)[O-])ccc21 ?
Mtb bLac sens: -2; RecA splice inh: 0.4; Mtb H37Rv: -1%; Arbovirus anti: -12

Results for C[C@]1(C2CCCC2)Cc2cc(OCC(=O)O)c(Cl)c(Cl)c2C1=O ?
Mtb bLac sens: 1; RecA splice inh: -2.8; Mtb H37Rv: -6%

What do the screens show for `Cc1nn(Cc2ccccc2)c(C)c1NC(=O)c1ccc([N+](=O)[O-])cc1[N+](=O)[O-]`?
YopH PTP inh: -20; Mtb bLac sens: -1; RecA splice inh: -5.1; Mtb H37Rv: 1%; Arbovirus anti: 2

What do the screens show for `CN(/C(=N/S(=O)(=O)c1ccccc1)c1ccccc1)S(=O)(=O)c1ccccc1`?
YopH PTP inh: -33; Mtb bLac sens: 0; RecA splice inh: 1.6; Mtb H37Rv: 0%; Arbovirus anti: 1

What do the screens show for `COC(=O)C(F)(Sc1c(C)n(C)n(-c2ccccc2)c1=O)C(F)(F)F` (stereo not drawn)?
YopH PTP inh: -25; Mtb bLac sens: 0; RecA splice inh: -7.7; Mtb H37Rv: 9%; Arbovirus anti: 1

What do the screens show for `CC(C)(C)c1ccc(C(=O)C=[N+]=[N-])cc1`?
YopH PTP inh: -19; Mtb bLac sens: 18; RecA splice inh: 2.1; Mtb H37Rv: 9%; Arbovirus anti: -5

Results for COc1ccc(-n2nc(C(=O)NCC(=O)N3CCC(C)CC3)c3ccccc3c2=O)cc1 ?
Mtb bLac sens: 7; RecA splice inh: 0.9

How did CN=C1SC(CC(=O)NCCc2ccc(OC)c(OC)c2)C(=O)N1C (stereo not drawn) do in these assays?
YopH PTP inh: -47; Mtb bLac sens: -4; RecA splice inh: 0.1; Mtb H37Rv: -9%; Arbovirus anti: 0

Results for CC1CCCC(NC(=O)CNC(=S)N2CC3CC(C2)c2cccc(=O)n2C3)C1C (stereo not drawn) ?
Mtb bLac sens: 5; RecA splice inh: -1.2

What do the screens show for `COc1ccc(CCNC(=O)CC2SC(=NCc3ccccc3)NC2=O)cc1` (stereo not drawn)?
Mtb bLac sens: 5; RecA splice inh: -0.7; Mtb H37Rv: 7%; Arbovirus anti: 8

How did O=C(NCCN1CCN(C(=O)c2c(F)cccc2F)CC1)C(=O)Nc1ccc(Cl)cc1 do in these assays?
Mtb bLac sens: -7; RecA splice inh: -3.8

How did CCOc1ccc(Nc2cc(C)nc(N3CCOCC3)n2)cc1 do in these assays?
YopH PTP inh: -7; Mtb bLac sens: -17; RecA splice inh: -1.8; Mtb H37Rv: -19%; Arbovirus anti: 5

What do the screens show for `Cc1ccc(OCC(=O)NCCNC(=O)c2ccco2)cc1`?
Mtb bLac sens: -1; RecA splice inh: -1.9

How did Cc1cc(C)c2c(c1)OC(O)(C(F)F)CC2=O (stereo not drawn) do in these assays?
YopH PTP inh: -48; Mtb bLac sens: -7; RecA splice inh: 0.6; Mtb H37Rv: 3%; Arbovirus anti: -8

What do the screens show for `O=C(CC1Nc2ccccc2NC1=O)NCCc1ccccc1` (stereo not drawn)?
YopH PTP inh: -9; Mtb bLac sens: -3; RecA splice inh: -0.1; Mtb H37Rv: 5%; Arbovirus anti: -4

How did COc1ccc(C2NS(=O)(=O)N=C2N)cc1 (stereo not drawn) do in these assays?
Mtb bLac sens: -4; RecA splice inh: 2.4; Mtb H37Rv: -3%; Arbovirus anti: 13

Screening data from PubChem.
